# High-throughput results: PubChem BioAssay, several laboratories
# Mtb hypoxia rep: reduces hypoxia-regulated biosensor signal in M. tuberculosis. M. tuberculosis hypoxia-regulated fluorescent reporter, fluorescence. hit rate 0.1% among 300,000. fluorescence inhibition, % (no concentration beside the values). AID 1159583;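 active means 35 to 45% if threefold the growth effect, above 45% if 1.5-fold the growth effect; inactive means the rest, general growth blockers included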;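 further: wells of about 50 µL received 100 nL stock; 0% = vehicle wells and 100% = reference inhibitor wells; whole bacteria with a GFP reporter of the hypoxia response; strong numbers were not always called active; many hits fall short of the cut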
# Sa ugtP lethal: kills S. aureus RN4220 lacking UgtP; S. aureus RN4220 ugtP deletion, OD600 growth, 16 h; some inactives read as strong as hits; growth inhibition, % (no concentration beside the values); hit rate 0.54% among 330,000; AID 1259309;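 active means z-score under -3 and OD600 up to 0.15 on both plates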;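 further: plate controls were untreated wells for no effect and antibiotic for full effect; wells of about 80 µL received 100 nL stock; the first replicate is given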
# BJeLR lethal: BJeLR cell viability loss; BJeLR (HRASV12) viability, CellTiter-Glo ATP luminescence, 48 h; reference of the scale not given here; hit rate 0.17% among 300,000; inhibition, % (no concentration beside the values);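 active means replicate mean above 50%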;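 further: 50 nL library stock added to about 25 µL; numbers are from one replicate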
# PrP UTR inh: inhibition of PrP 5' UTR reporter expression. cell-based PrP 5' UTR mRNA reporter, plate reader. inhibition, % (no concentration beside the values). hit rate 0.35% among 340,000. AID 488862;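 active means every replicate at 50% or more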;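 further: 0 = median of the neutral control wells; tested in H4 reporter cells; numbers are from one replicate; inactives centre near -14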
# Sa RN4220 lethal: kills Staphylococcus aureus RN4220; S. aureus RN4220 growth, OD600, 16 h; AID 1259311; inhibition, % (no concentration beside the values); hit rate 0.33% among 330,000;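 active means z-score of -3 or lower and OD600 up to 0.18 on both plates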;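 further: plate controls were untreated cells for no effect and reference antibiotic for full effect; stock transfer was 100 nL into about 80 µL; one replicate is shown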
# Bead autofluor: compound fluorescence in toxin protease inhibitor counterscreen. hit rate 3.1% among 360,000. fluorescence intensity (concentration not given with the values). AID 624483. compound autofluorescence counterscreen, microsphere flow cytometry; hits give high values;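 active means at least 3 SD above the mean of all compounds, about 16000 in these data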;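 further: 100 nL of 1 mM stock went into each well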
# Mtb hypoxia rep growth: second read-out of Mtb hypoxia rep, no call of its own (marks repeat the call); growth inhibition, %; measured here: M. tuberculosis growth (absorbance);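 0% = vehicle and 100% = reference antibiotic; read after six days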
# * marks the source's active call; other numbers are inactive results; nt = no result given.
item	compound	Mtb hypoxia rep	Mtb hypoxia rep growth	Sa ugtP lethal	BJeLR lethal
1	CC1CCN(S(=O)(=O)c2ccc3c(ccn3CCC(=O)NC(C)C)c2)CC1	-12	4	-9	2
2	CCCCN(C(=O)c1ccc(S(=O)(=O)N(CC)CC)cc1)c1c(N)n(CCC)c(=O)[nH]c1=O	7	1	13	-7
3	O=C(CN1NS(=O)(=O)c2ccccc2C1=O)Nc1ccccc1OC(F)F	-3	7	-5	-1
4	COc1ccccc1NC(=O)CC1S/C(=N/N=C2\CCCc3ccccc32)NC1=O (stereo not given)	nt	nt	nt	2
5	CSc1ncccc1C(=O)Nc1ccc2c(c1)OCCO2	8	9	7	nt
6	O=C1NCCCC1=NNc1ccc(F)cc1	0	-2	2	nt
7	COC(=O)CN(C#N)c1nc(SC)nc(N(C)C)n1	15	8	-5	3
8	C=CCN1C(=O)/C(=C2/Sc3ccccc3N2C)SC1=Nc1ccccc1C	14	8	7	0
9	CN1C(=S)SC(N(O)C(=O)Nc2ccc(Cl)c(Cl)c2)C1(C)C (stereo not given)	-3	8	-31	-9
10	C=CCNc1nc(SC)nc2ccsc12	nt	nt	3	1
11	C=Cn1c(C(=O)O)ccc1-c1ccc(OC)cc1	1	1	78	2
12	COc1cccc(NC2=C(C#N)C(=O)NC(c3cccc(OC)c3O)S2)c1 (stereo not given)	7	-1	11	-4

item	PrP UTR inh	Sa RN4220 lethal	Bead autofluor
1	0	-2.9	4598
2	-14	2.4	5964
3	-13	0.1	6349
4	-22	nt	5143
5	1	3.2	2947
6	nt	1.1	nt
7	-25	6.4	9595
8	-1	2.2	4847
9	-25	0.8	2011
10	-14	5.7	2344
11	-12	6.3	4408
12	-13	4.2	4330

# New compounds follow:
item	compound	Mtb hypoxia rep	Mtb hypoxia rep growth	Sa ugtP lethal	BJeLR lethal
13	NCC(=O)Nc1ccc(Cl)cc1C(=O)c1ccc[nH]1	nt	nt	nt	28
14	CN(C)C(=O)CN1C(=O)C2CC=C(Cl)CC2C1=O (stereo not given)	8	7	5	0
15	CSc1cccc(NC(=O)N2CCCC(CNS(=O)(=O)Cc3ccccc3)C2)c1 (stereo not given)	-3	9	-8	6
16	O=C(CSc1nnc(NC(=O)c2cccc(F)c2)s1)NCC1CCCO1 (stereo not given)	4	9	3	5
17	COc1ccc2nc3sc(C(=O)NCCN4CCc5ccccc5C4)cc3cc2c1	7	12	10	5
18	O=c1[nH]c(-c2cccnc2)nc2ccccc12	9	12	4	-9
19	Cc1ccc(-c2nn(CCC(=O)O)cc2CCC(=O)O)cc1	8	6	10	-3
20	CCNC(=S)NN=Cc1c(C)nn(-c2cccc(Cl)c2)c1Cl	11	7	3	nt
21	Cc1ccc(S(=O)(=O)N2CCOCC2)cc1NC(=O)CSc1nc(N)cc(N)n1	-2	2	5	nt
22	CCOC(=O)C(C#N)(Cc1cc(OC)cc(OC)c1)Cc1cc(OC)cc(OC)c1	-5	-13	1	-3
23	Cc1ccc(C(=O)O/N=C(\N)Cc2cccc3ccccc23)cc1	7	3	14	-8
24	CCO[C@H]1OC(C(N)=O)=C[C@@H](c2ccc(Br)cc2)[C@@H]1CCCO	nt	nt	nt	-6

item	PrP UTR inh	Sa RN4220 lethal	Bead autofluor
13	-13	nt	3026
14	-1	4.4	10141
15	-23	0.8	5148
16	-5	-3.6	5372
17	-29	4.7	10183
18	1	4.8	4411
19	-21	3.8	7770
20	nt	10	nt
21	-18	-0.8	5912
22	-46	-1.0	3678
23	3	4.9	3125
24	12	nt	3706

# Rewritten in transposed form: entries from further up
23) Cc1ccc(C(=O)O/N=C(\N)Cc2cccc3ccccc23)cc1
24) CCO[C@H]1OC(C(N)=O)=C[C@@H](c2ccc(Br)cc2)[C@@H]1CCCO

entry no. | 23 | 24
Mtb hypoxia rep | 7 | nt
Mtb hypoxia rep growth | 3 | nt
Sa ugtP lethal | 14 | nt
BJeLR lethal | -8 | -6
PrP UTR inh | 3 | 12
Sa RN4220 lethal | 4.9 | nt
Bead autofluor | 3125 | 3706

# (listing goes on)
item	compound	Mtb hypoxia rep	Mtb hypoxia rep growth	Sa ugtP lethal	BJeLR lethal
25	C/C(=N/OC(=O)CC(C)C)c1cc(-c2ccc(Cl)cc2)no1	nt	nt	nt	0
26	CC1CCN(C(=O)C(=O)c2cn(CC(=O)N3CCCCCC3)c3ccccc23)CC1	-3	3	-1	-1
27	Cn1c(N)c(C(=O)COC(=O)/C=C/c2cccc(C(F)(F)F)c2)c(=O)n(C)c1=O	-2	-6	-5	nt
28	O=C(CN1CCN(C2CCCCC2)CC1)NCCC1=CCCCC1	5	3	1	-2
29	CCOC(=O)c1ccc(NC(=O)c2cccc3c2C(=O)N(CC2CCCO2)C3)cc1 (stereo not given)	15	11	-3	-1
30	COC(=O)c1sccc1NC(=O)c1sccc1C	-6	1	6	-1
31	O=C(CN1CCCCCC1)NN=Cc1cccc(Cl)c1Cl	-7	7	-2	nt
32	O=C(CCc1nnc2ccc(NCc3ccco3)nn12)Nc1cccc(F)c1	9	-8	7	14
33	CCCn1c(N)c(N(CCOC)C(=O)c2cc(Cl)nc3ccccc23)c(=O)[nH]c1=O	0	9	3	1
34	COc1ccc(NC(=O)c2ccccc2)c([N+](=O)[O-])c1	8	3	12	-9
35	COC(C[C@H](O)C[C@H](O)[C@@H](C)OCc1ccccc1)OC	nt	nt	nt	-1
36	Cc1cc(Nc2ccc(C(=O)N3CCCCC3)cc2)c2cccc(C)c2n1	2	1	2	0

item	PrP UTR inh	Sa RN4220 lethal	Bead autofluor
25	-32	nt	4266
26	-23	-2.1	6694
27	0	1.5	2920
28	-24	3.7	11213
29	-18	-16	5351
30	-8	9.8	6360
31	nt	-3.6	nt
32	-7	-3.9	6203
33	-9	-0.1	4513
34	-63	9.0	3455
35	-16	nt	3743
36	3	0.7	3658

# Gathered by group: the entries above containing a COOH group
item	compound	Mtb hypoxia rep	Mtb hypoxia rep growth	Sa ugtP lethal	BJeLR lethal
11	C=Cn1c(C(=O)O)ccc1-c1ccc(OC)cc1	1	1	78	2
19	Cc1ccc(-c2nn(CCC(=O)O)cc2CCC(=O)O)cc1	8	6	10	-3

item	PrP UTR inh	Sa RN4220 lethal	Bead autofluor
11	-12	6.3	4408
19	-21	3.8	7770

# The list continues:
item	compound	Mtb hypoxia rep	Mtb hypoxia rep growth	Sa ugtP lethal	BJeLR lethal
37	COc1ccc(S(=O)(=O)Nc2ccccc2C(=O)NCc2cccnc2)cc1C	13	3	0	-2
38	CC(C)c1ccc(N=c2c([N+](=O)[O-])nn(-c3ccc4c(c3)OCCO4)n2O)cc1	12	4	21	1
39	CCN(CC)S(=O)(=O)c1cc(NC(=O)c2cc(-c3ccccn3)nc3ccccc23)ccc1C	6	14	-13	1
40	Cc1cccc(C)c1OCCCN1CCOCC1	9	-2	20	5
41	CCCSc1cc(=O)n(-c2ccccc2)nc1C(=O)OCC	6	5	-1	7
42	C=CCNC(=O)c1ccc(-c2nc(-c3ccc(Cl)c(Cl)c3)cs2)cc1	10	10	-7	-5
43	O=C(COC(=O)CCc1nc2ccccc2s1)Nc1cccc(S(=O)(=O)N2CCOCC2)c1	17	10	5	-8
44	Cn1ccsc1=NC(=O)c1ccccc1F	nt	nt	1	-1
45	CC(C)COc1ccc(C(=O)NC(Cc2c[nH]c3ccccc23)C(=O)NN)cc1 (stereo not given)	0	6	0	-3
46	CN(Cc1cn[nH]c1-c1cc2ccccc2o1)CC1CCOCC1	2	14	3	-1
47	COc1ccc(C(=O)N2CCOC23CCN(c2ncccn2)CC3)cc1	5	-4	0	12
48	Cc1ccc(S(=O)(=O)N2CCN(Cc3ccccn3)CC2)cc1	-3	0	5	1

item	PrP UTR inh	Sa RN4220 lethal	Bead autofluor
37	-19	1.0	6342
38	-16	-8.9	8315
39	-20	7.5	4248
40	-23	4.3	3926
41	-2	3.5	22530*
42	-14	1.5	22537*
43	-28	4.4	9182
44	-17	5.7	2175
45	-7	2.4	4650
46	-40	3.0	3983
47	-4	-0.8	3618
48	-7	3.9	4625

# Other records
item	compound	Mtb hypoxia rep	Mtb hypoxia rep growth	Sa ugtP lethal	BJeLR lethal
49	Cc1nn(Cc2ccccc2)c2sc(C(=O)N3CCN(Cc4ccc5c(c4)OCO5)CC3)cc12	nt	nt	1	2
50	N/C(Cc1ccc(Cl)cc1)=N\OC(=O)c1ccc2ccccc2c1	nt	nt	-2	3
51	O=C(NCCc1ccccc1)c1ccc(Br)o1	nt	nt	7	-3
52	CCCNC(=O)c1ccc(N2CCC3(CC2)CC(c2ccccc2)=NO3)c(NC(=O)c2cccc(C)c2)c1	-3	-8	8	0
53	COc1ccc(Cc2[nH]n3c(=O)c(Cl)c(C)nc3c2-c2ccccc2)cc1	0	4	62	0
54	CCCOc1ccc(-c2nn(-c3ccccc3)cc2C=C2SC(N)=NC2=O)cc1	-2	-2	-1	nt
55	O=C(O)/C=C/c1cccc(OCc2ccccc2)c1	nt	nt	nt	3
56	Nc1nc(=S)c2ncn(C3CCCC3)c2[nH]1	nt	nt	nt	-1
57	COc1ccc(N=Cc2ccc(-c3ccccc3)o2)cc1	1	8	0	3
58	O=C(Nc1ccc(C(=O)N2CCCCC2)cc1)c1ccccc1Cl	16	4	3	4
59	CCOC(=O)c1c(NC(=O)C2CC=CCC2C(=O)O)sc(C)c1CC (stereo not given)	9	6	0	12
60	O=C(NCc1ccc2c(c1)OCO2)c1c(F)c(F)c(F)c(F)c1F	nt	nt	-1	7

item	PrP UTR inh	Sa RN4220 lethal	Bead autofluor
49	-13	-7.3	2092
50	-34	2.4	5229
51	-55	7.0	4057
52	6	-5.1	3477
53	-25	66	4222
54	nt	11	nt
55	-19	nt	4167
56	-3	nt	4932
57	-16	5.8	4688
58	-20	2.0	5586
59	-42	23	4470
60	-16	-0.3	4283

# Single records, from the list above:
# O=C(O)/C=C/c1cccc(OCc2ccccc2)c1 as listed: Mtb hypoxia rep: nt; Mtb hypoxia rep growth: nt; Sa ugtP lethal: nt; BJeLR lethal: 3; PrP UTR inh: -19; Sa RN4220 lethal: nt; Bead autofluor: 4167
# O=C(Nc1ccc(C(=O)N2CCCCC2)cc1)c1ccccc1Cl as listed: Mtb hypoxia rep: 16; Mtb hypoxia rep growth: 4; Sa ugtP lethal: 3; BJeLR lethal: 4; PrP UTR inh: -20; Sa RN4220 lethal: 2.0; Bead autofluor: 5586

# Additional results:
item	compound	Mtb hypoxia rep	Mtb hypoxia rep growth	Sa ugtP lethal	BJeLR lethal
61	CCN1CCN(c2nc3c(C)cccn3c(=O)c2/C=C(\C#N)C(=O)NC)CC1	14	5	5	5
62	CN(C(=O)c1cccc(NC(=O)C2CCN(C(=O)OC(C)(C)C)CC2)c1)C1CCC1	7	7	-7	nt
63	COc1ccc(/C=C2\SC(=O)N(CCNC(=O)C3CC4C=CC3C4)C2=O)cc1 (stereo not given)	-1	5	3	4
64	O=C(CSc1nncn1-c1ccccc1)N1CCCC1	-10	-10	-1	6
65	Cc1c(C(=O)C(C)C)n(C)c2ccccc12	nt	nt	12	-1
66	Nc1ncnc2c1CN(Cc1ccccc1)CC2	18	-2	3	nt
67	Cc1c(N2C(=O)/C(=C/c3ccccc3)SC2=S)c(=O)n(-c2ccccc2)n1C	16	13	6	-2
68	CCOC(=O)c1sc(NN=Cc2cc(Br)c(O)c(OC)c2)nc1C	-5	0	-12	nt
69	Cc1cccc(NC(=O)CN2C(=O)CNC2=O)c1	3	8	7	0
70	COc1ccccc1CN1C(=O)c2ccncc2C1=O	4	6	7	2

item	PrP UTR inh	Sa RN4220 lethal	Bead autofluor
61	3	4.1	3181
62	-15	4.4	4251
63	-58	9.5	3408
64	-6	2.0	2763
65	-6	8.1	2194
66	-23	-3.3	3973
67	-7	3.0	3441
68	nt	0.7	nt
69	15	2.8	3461
70	-13	2.6	9950

# Some of the entries so far, with tabs.
No.	mol	Mtb hypoxia rep	Mtb hypoxia rep growth	Sa ugtP lethal	BJeLR lethal	PrP UTR inh	Sa RN4220 lethal	Bead autofluor
64	O=C(CSc1nncn1-c1ccccc1)N1CCCC1	-10	-10	-1	6	-6	2.0	2763
65	Cc1c(C(=O)C(C)C)n(C)c2ccccc12	nt	nt	12	-1	-6	8.1	2194
66	Nc1ncnc2c1CN(Cc1ccccc1)CC2	18	-2	3	nt	-23	-3.3	3973
67	Cc1c(N2C(=O)/C(=C/c3ccccc3)SC2=S)c(=O)n(-c2ccccc2)n1C	16	13	6	-2	-7	3.0	3441
